VACV mCherry inh: qHTS for Stage-Specific Inhibitors of Vaccinia Orthopoxvirus: mCherry Reporter Primary qHTS. Vaccinia virus mCherry reporter infection, fluorescence; about a quarter of the inactives have no number. Potency, µM (series often up to 36.5 µM), inactives show top-dose activity change, negative = inhibition, usual class: inhibitors. 310,000 tested, 0.63% active; active = well fitted inhibition curve with a large enough effect; inconclusive = small, poorly fitted or top-dose-only effect; inactive = no such curve, though single readings can be large or run the other way; tested in A549 cells; further: nearly all actives have a fitted effect of over 35% in size; inactives centre near -10
Vaccinia Venus: qHTS for Stage-Specific Inhibitors of Vaccinia Orthopoxvirus: Venus Reporter Primary qHTS. Vaccinia virus Venus reporter expression, fluorescence. Potency, µM (top dose mostly 36.5 µM), without a hit: top-dose activity change, negative = inhibition, usual class: inhibitors. 330,000 tested, 0.46% active; active means well fitted inhibition curve with a large enough effect; inconclusive means small, poorly fitted or top-dose-only effect; inactive means no such curve, though single readings can be large or run the other way; tested in A549 cells; further: nearly all actives have a fitted effect of over 30% in size; inactives centre near -10
* marks the source's active call; other numbers are inactive results; & = joins results of further samples; [ ] = remark or other dose. On the % scale 0 is the no-effect control and ±100 the full control effect; potency means the concentration at half of the fitted maximal effect.

For COc1ccc(/C=C2/SC(=O)N(CCNC(=O)CC(NC(C)=O)c3ccccc3)C2=O)cc1 (centres undefined) the results were VACV mCherry inh -3.9% and Vaccinia Venus -9.3%.
For COc1cc(=O)n2c(c1C(=O)NC(C)c1ccco1)CCN(C(=O)c1cn3ccc(C)cc3n1)CC2 (centres undefined) the results were VACV mCherry inh -9.5% and Vaccinia Venus -4.9%.
CN1CCCC(OC(=O)c2ccc3c(c2)OCCO3)C1 (centres undefined) was read as VACV mCherry inh -15.0% and Vaccinia Venus -14.5%.
For CCC(O)C1CCN(Cc2cn(-c3ccc(OC)cc3)nc2-c2cccc(F)c2)CC1 (centres undefined) the results were VACV mCherry inh -16.8% and Vaccinia Venus -26.3%.
Screening CC(C)CN(C(=O)c1ccc2c(c1)OCCO2)c1c(N)n(Cc2ccccc2)c(=O)[nH]c1=O returned VACV mCherry inh -0.7% and Vaccinia Venus -8.8%.
`COc1cc(NS(=O)(=O)c2ccc(NC(=O)c3ccc([N+](=O)[O-])cc3)cc2)ncn1` gave VACV mCherry inh inactive and Vaccinia Venus -1.6%.
For Cc1cc2cc(C)c3nnc(SCC(=O)Nc4ccc(S(=O)(=O)N5CCCCC5C)cc4)n3c2cc1C (centres undefined) the results were VACV mCherry inh inactive and Vaccinia Venus -9.9%.
Screening CCCCn1c(-c2csc(CCC)c2)n[nH]c1=S returned VACV mCherry inh -2.2% and Vaccinia Venus 0.1%.
Screening CC(C)CCn1c(=O)c2c(nc3n2CCCN3Cc2ccccc2)n(C)c1=O returned VACV mCherry inh -8.8% and Vaccinia Venus -12.2%.
Screening Cc1nn(C)c(-c2n[nH]c(=S)n2-c2ccccc2)c1Cl returned VACV mCherry inh inactive and Vaccinia Venus -8.5%.
Screening COc1cccc([C@@H]2CC=C(C(=O)O)[C@H](c3ccc(Cl)cc3)N2S(=O)(=O)c2ccc(C)cc2)c1 returned VACV mCherry inh 2.8% and Vaccinia Venus -2.6%.
`Cc1cc(C)n(-c2nnc(C)n2/N=C/c2ccccc2O)n1` gave VACV mCherry inh -10.9% and Vaccinia Venus -13.3%.
`C[C@H](CO)N1C[C@H](C)[C@@H](CN(C)S(=O)(=O)c2ccccc2F)Oc2ncc(Br)cc2C1=O` gave VACV mCherry inh -12.5% and Vaccinia Venus -4.5%.
COc1ccc(-c2nnc(SCc3nc4ccccc4s3)n2C(C)C)cc1 was read as Vaccinia Venus -20.3%.
For CCOC(=O)N1CCN(C(=O)C2CCN(S(=O)(=O)c3cc(C)ccc3OC)CC2)CC1 the results were VACV mCherry inh -2.3% and Vaccinia Venus -2.1%.
`CCN(CC)S(=O)(=O)c1ccc2[nH]c(=O)cc(C(=O)NCC3CCCO3)c2c1` (centres undefined) gave VACV mCherry inh -13.5% and Vaccinia Venus 4.9%.
`CCN(CC)CCCNc1nc(C)cc(COC)c1C#N` gave VACV mCherry inh -5.1% and Vaccinia Venus -14.4%.
`OC(CN1CCN(c2ccc(F)cc2)CC1)c1ccc(Cl)cc1` (centres undefined) gave VACV mCherry inh inactive and Vaccinia Venus -3.1%.
Screening COc1ccc(CN(C)C(=O)c2cc(S(=O)(=O)N3CCCCCC3)ccc2OC)cc1OC returned VACV mCherry inh -17.5% and Vaccinia Venus -17.0%.
CCOCCCNC(=O)CCc1nnc2n(CCC(C)C)c(=O)c3ccccc3n12 was read as VACV mCherry inh inactive and Vaccinia Venus -2.2%.
Screening N#Cc1ccccc1OCC(=O)NC(=O)NCc1ccccc1 returned VACV mCherry inh inactive and Vaccinia Venus -17.7%.
For Cc1cc(C(C)(C)C)c(OC(=O)[C@@H]2OC(c3ccccc3)=C[C@H]2c2ccccc2)c(C(C)(C)C)c1 the results were VACV mCherry inh inactive and Vaccinia Venus -1.4%.
For O=C(CN1CCN(Cc2ccccc2)CC1)N1CCCCCC1 the results were VACV mCherry inh -7.1% and Vaccinia Venus -2.6%.
For O=C(CN(C(=O)c1ccco1)c1cccc(F)c1)NCc1ccc(F)cc1 the results were VACV mCherry inh -3.9% and Vaccinia Venus -4.9%.
`COc1ccc2nc(SCC(=O)NC3CC3)c(C#N)cc2c1` gave VACV mCherry inh -11.7% and Vaccinia Venus 1.8%.
CCCCCCCC/C=C\CCCCCCCCOC[C@H](COP(=O)([O-])OCC[N+](C)(C)C)OC(C)=O was read as VACV mCherry inh -0.3%[3.33 µM] and Vaccinia Venus -13.0%[3.33 µM].
Screening CC(C)CC(=O)Nc1ccc(C(=O)CN2C(=O)NC3(CCOc4ccccc43)C2=O)cc1 (centres undefined) returned VACV mCherry inh -4.2% and Vaccinia Venus -16.0%.
`O=C(NC1CCCC1)c1ccc2c(=O)n(Cc3ccccc3)c(SCc3ccccc3F)nc2c1` gave VACV mCherry inh -15.8% and Vaccinia Venus -8.7%.
Screening CCOc1cccc(C(=O)Nc2ccc(-c3nc4cc(C)cc(C)c4o3)cc2)c1 returned VACV mCherry inh -21.6% and Vaccinia Venus -15.6%.
For COc1ccc2cc3cc(C(=O)N4CCN(c5cccc(C(F)(F)F)c5)CC4)sc3nc2c1 the results were VACV mCherry inh -10.5% and Vaccinia Venus -17.0%.
For S=c1nccc(-c2ccc3c(c2)CCO3)[nH]1 the results were VACV mCherry inh -6.5%[7.34 µM] and Vaccinia Venus -11.8%[7.34 µM].
`COc1ccc(C2=CC3=C(Br)C(=O)C(C)(O)C(=O)C3=CO2)cc1` (centres undefined) gave VACV mCherry inh -5.8% and Vaccinia Venus inconclusive.
`CS(=O)(=O)Cc1ccc(C(=O)NNC(=O)c2cc(-c3ccccc3)n[nH]2)cc1` gave VACV mCherry inh -7.2% and Vaccinia Venus 6.9%.
CCOc1cccc2cc(C(=O)NCc3ccc(C)cc3)c(=N)oc12 was read as VACV mCherry inh -18.4% and Vaccinia Venus -11.6%.
Screening COc1cccc(CC(NC(C)=O)C(=O)NC2CCN(c3c4c(nc5ncnn35)CCC4)CC2)c1 (centres undefined) returned VACV mCherry inh -16.2% and Vaccinia Venus -10.4%.
COc1nccnc1NS(=O)(=O)c1ccc(NC(=O)c2ccccc2Br)cc1 was read as VACV mCherry inh inactive and Vaccinia Venus -4.6%.
O=C(CCl)Nc1cc2[nH]c(=O)[nH]c2cc1Br was read as VACV mCherry inh inconclusive and Vaccinia Venus inconclusive.
`Cc1ccc(NC(=O)c2ccco2)cc1C` gave VACV mCherry inh -11.9% and Vaccinia Venus -10.2%.
`O=C(Nc1nc2ccccc2n1Cc1ccc(Cl)cc1)c1ccco1` gave VACV mCherry inh -15.0% and Vaccinia Venus -12.0%.
`COCc1cc(C)nc(OCC(=O)N/N=C/c2ccccc2)c1C#N` gave VACV mCherry inh -1.5% and Vaccinia Venus -5.3%.
`Cc1cc(-c2cccnc2)c(C#N)c(SCC#N)n1` gave VACV mCherry inh inactive and Vaccinia Venus -7.8%.
`CC(C)N1C(=O)c2ccccc2NC(=O)C1C(=O)NCc1cccs1` (centres undefined) gave VACV mCherry inh -6.6% and Vaccinia Venus -3.0%.
O=c1[nH]c(=O)n([C@@H]2O[C@H](CO)[C@@H](O)[C@H]2O)cc1F was read as VACV mCherry inh 1.12µM* and Vaccinia Venus inconclusive.
Cc1c(Br)c([N+](=O)[O-])nn1CC(=O)NCc1ccco1 was read as VACV mCherry inh -16.0% and Vaccinia Venus -6.9%.
Cn1nc(C(=O)OCc2ccc(Br)cc2F)c2ccccc2c1=O was read as VACV mCherry inh inactive and Vaccinia Venus -6.5%.
`Cc1nc2cc(NCc3cc([N+](=O)[O-])ccc3O)ccc2n1Cc1ccccc1` gave VACV mCherry inh -14.9% and Vaccinia Venus -9.2%.
For O=C(NCCCCc1ccccc1)C1CC(c2ccc([N+](=O)[O-])cc2)=NO1 (centres undefined) the results were VACV mCherry inh -16.7% and Vaccinia Venus -12.0%.
C/C(=N\NC(=O)CNc1cccc2ccccc12)c1ccc(Br)s1 was read as VACV mCherry inh inconclusive and Vaccinia Venus -6.9%.
`O=c1cc(-c2ccccc2O)oc2cc(O)ccc12` gave VACV mCherry inh -1.8% and Vaccinia Venus 0.0%.
COc1ccc(NC(=O)CSc2nc3c(c(=O)n2C)SCC3)cc1OC was read as VACV mCherry inh -19.3% and Vaccinia Venus -17.0%.
For Cc1cccc2nc(-c3cccc(NC(=O)c4ccc(Cl)cc4)c3)cn12 the results were VACV mCherry inh inconclusive and Vaccinia Venus inconclusive.
For O=C(NCCCN1CCOCC1)c1ccc(CS(=O)(=O)c2c(Cl)cccc2Cl)o1 the results were VACV mCherry inh -6.7% and Vaccinia Venus -3.3%.
For Cc1ccc(OCC(=O)Nc2ccc3c4c(cccc24)CC3)c(C)c1 the results were VACV mCherry inh -4.8% and Vaccinia Venus -3.8%.
For Cc1ccc(S(=O)(=O)N2C[C@H]3[C@H]4C(=O)N(c5ccccc5)C(=O)[C@H]4CC(=O)[C@H]3[C@@H]2c2cccc3ccccc23)cc1 the results were VACV mCherry inh inactive and Vaccinia Venus 6.2%.
Screening NCC1CCN(c2nc3ccccc3c3c2CCCC3)CC1 returned VACV mCherry inh inconclusive and Vaccinia Venus -22.1%.
CC(C)CCNC(=O)Cn1c(=O)oc2cc(S(=O)(=O)N3CCc4ccccc43)ccc21 was read as VACV mCherry inh inactive and Vaccinia Venus -9.1%.
Screening CCOC(CCn1c(SCC(=O)NC2CCCC2)nc2ccccc2c1=O)OCC returned VACV mCherry inh -5.2% and Vaccinia Venus 2.9%.
For CC(C)N1CCCC(CNC(=O)CCc2nnc(CCCCc3ccccc3)o2)C1 (centres undefined) the results were VACV mCherry inh -7.5% and Vaccinia Venus 4.2%.
CC(CNC(=O)c1ccc2c(c1)nc1n2CCOC1)c1ccccc1 (centres undefined) was read as VACV mCherry inh -6.3%[7.34 µM] and Vaccinia Venus -4.6%[7.34 µM].
Cc1ccccc1-n1c(/C=C/c2ccccn2)nc2ccccc2c1=O was read as VACV mCherry inh inconclusive and Vaccinia Venus inconclusive.

Of the compounds above, 4 contain a nitro group on carbon:
`COc1cc(NS(=O)(=O)c2ccc(NC(=O)c3ccc([N+](=O)[O-])cc3)cc2)ncn1` gave VACV mCherry inh inactive and Vaccinia Venus -1.6%.
Cc1c(Br)c([N+](=O)[O-])nn1CC(=O)NCc1ccco1 was read as VACV mCherry inh -16.0% and Vaccinia Venus -6.9%.
`Cc1nc2cc(NCc3cc([N+](=O)[O-])ccc3O)ccc2n1Cc1ccccc1` gave VACV mCherry inh -14.9% and Vaccinia Venus -9.2%.
For O=C(NCCCCc1ccccc1)C1CC(c2ccc([N+](=O)[O-])cc2)=NO1 (centres undefined) the results were VACV mCherry inh -16.7% and Vaccinia Venus -12.0%.

Going on with the list:
`Cc1cc(C)n(-c2nc(N(C)C)nc(N(C)C)n2)n1` gave VACV mCherry inh -17.8%&-17.3% and Vaccinia Venus -12.2%&-4.0%.
C[C@@H]1CN([C@H](C)CO)C(=O)CCCn2cc(nn2)CO[C@H]1CN(C)S(=O)(=O)c1ccc2c(c1)OCCCO2 was read as VACV mCherry inh inactive and Vaccinia Venus -6.1%.
For CC(=O)n1cc([C@@H]2C=C(C(=O)N3CCOCC3)O[C@H](OCCCCO)C2)c2ccccc21 the results were VACV mCherry inh 7.6% and Vaccinia Venus 1.9%.
Cn1c(CN2CCOCC2)nc2cc(NC(=O)COc3ccccc3)ccc21 was read as VACV mCherry inh 5.1% and Vaccinia Venus -7.8%.
Screening CSc1ccccc1NC(=O)COc1ccc(Cl)cc1C returned VACV mCherry inh -7.6% and Vaccinia Venus 2.9%.
O=C(NCc1ccc(Cl)c(Cl)c1)c1cccnc1 was read as VACV mCherry inh -10.2% and Vaccinia Venus -19.8%.
Clc1ccccc1CN1CCN(CCCc2ccccc2)CC1 was read as VACV mCherry inh inactive and Vaccinia Venus -0.4%.
For COc1ccccc1CNc1nc(-c2ccco2)nn1S(C)(=O)=O the results were VACV mCherry inh inactive and Vaccinia Venus -11.8%.
Screening CCCCCCCCCCC[N+](C)(C)CC/C=C1/c2ccccc2Sc2ccc(Cl)cc21 returned VACV mCherry inh inconclusive and Vaccinia Venus 11.2µM*.
`Cc1ccc(NC(=O)CN2C(=O)NC(Cc3c[nH]c4ccccc34)C2=O)cc1S(=O)(=O)N1CCCCC1` (centres undefined) gave VACV mCherry inh inconclusive and Vaccinia Venus -28.5%.
Screening Cc1ccccc1N(CC(=O)NCCc1ccccc1)C(=O)CCC(=O)Nc1ccccn1 returned VACV mCherry inh inconclusive and Vaccinia Venus -18.8%.
Screening COc1cc2[nH]c(=S)n(Cc3ccc(C)cc3)c(=O)c2cc1OC returned VACV mCherry inh inactive and Vaccinia Venus -11.6%.
For CNC(=O)C[C@H]1C(=O)N(c2ccc(Br)cc2)C[C@@H]1C the results were VACV mCherry inh -20.7% and Vaccinia Venus -7.8%.
`Cc1ccnc2nc(C(=O)NC3=NCCS3)nn12` gave Vaccinia Venus -14.6%.
Screening Cc1ccc(-n2nc3c(c2NC(=O)C2CCCC2)CS(=O)(=O)C3)cc1 returned VACV mCherry inh -12.4% and Vaccinia Venus -19.2%.
`Cc1ccccc1CNC(=O)c1ccccc1NS(C)(=O)=O` gave VACV mCherry inh -11.0% and Vaccinia Venus -14.6%.
C/C(=N\Nc1ccc([N+](=O)[O-])cc1)c1ccc(-n2nncc2C(C)(C)C)cc1 was read as VACV mCherry inh -14.0% and Vaccinia Venus -11.8%.
Screening C=CCN1C(=NC(=O)CCCC(=O)O)SC2CS(=O)(=O)CC21 (centres undefined) returned VACV mCherry inh -2.3% and Vaccinia Venus -4.0%.
For COC(=O)C1=C(C)NC(C)=C(C(=O)O[C@@H]2CCCN(Cc3ccccc3)C2)[C@@H]1c1cccc([N+](=O)[O-])c1 the results were VACV mCherry inh -8.0% and Vaccinia Venus -27.0%.
